Screening results (PubChem)
Myc binder: binders of human c-Myc, primary screen, biochemical, small molecule microarray, anti-His fluorescence; calls only; hit rate 1.5% among 17,000; His-c-Myc binding; AID 624141, 2012; Myc proto-oncogene protein (Homo sapiens), P01106;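 active means spot fluorescence over background with P-value below 7% in all four replicate spots, showing protein binding; compounds were printed on slides so no solution concentration is given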;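 further: score is binary with 100 for all four spots passing and 0 otherwise; about 2 pmol printed per array spot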
Target sequence (P01106 whole entry, looked up): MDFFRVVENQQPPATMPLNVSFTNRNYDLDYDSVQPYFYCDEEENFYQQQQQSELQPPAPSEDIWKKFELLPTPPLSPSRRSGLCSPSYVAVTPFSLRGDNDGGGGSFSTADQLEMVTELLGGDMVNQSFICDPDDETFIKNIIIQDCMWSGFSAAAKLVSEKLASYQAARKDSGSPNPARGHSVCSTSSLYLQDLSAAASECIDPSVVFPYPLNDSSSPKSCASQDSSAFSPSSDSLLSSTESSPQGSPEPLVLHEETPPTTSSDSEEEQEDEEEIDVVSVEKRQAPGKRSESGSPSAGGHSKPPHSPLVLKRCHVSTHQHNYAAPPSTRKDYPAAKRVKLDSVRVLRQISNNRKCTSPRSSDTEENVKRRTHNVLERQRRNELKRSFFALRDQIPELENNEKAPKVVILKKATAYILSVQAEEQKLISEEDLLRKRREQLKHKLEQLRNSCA
ID4 SMM: binders of human ID4 protein, primary screen, biochemical, small molecule microarray, single point; Flag-ID4 binding, fluorescence F/B; DNA-binding protein inhibitor ID-4 (Homo sapiens), P47928; hit rate 1.2% among 31,000; calls only; AID 624137, 2012;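 active means spot signal over background at p below 0.07 in all four prints; compounds were printed on slides so no solution concentration is given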;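 further: a binder raises fluorescence above local background on the spot; about 2 pmol printed per array spot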
Target sequence (P47928 whole entry, looked up): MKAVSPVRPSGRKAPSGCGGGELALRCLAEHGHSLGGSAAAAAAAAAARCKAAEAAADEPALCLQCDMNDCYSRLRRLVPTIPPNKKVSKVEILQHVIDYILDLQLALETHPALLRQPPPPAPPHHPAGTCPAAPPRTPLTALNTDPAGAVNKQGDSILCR
STAT3 binder: STAT3 binders, primary screen, biochemical, small molecule microarray, single point, set 2 | His-STAT3 binding, anti-His fluorescence | calls only | hit rate 0.2% among 17,000 | AID 624138, 2012;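 active means compounds whose four printed spots each show fluorescence over background unusually high for their array block, chance value under 7%; compounds were printed on slides so no solution concentration is given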;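 further: about 2 pmol printed per array spot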
p53 mut binder: binders of human mutant p53, primary screen, biochemical, small molecule microarray, anti-GST fluorescence; small molecule microarray binding; calls only; hit rate 0.4% among 17,000; mutant tumor protein p53 (GST-tagged), Homo sapiens;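 active means compounds whose four printed spots each glow above background more than chance allows, each with a p-value under 7%; compounds were printed on slides so no solution concentration is given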;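 further: about 2 pmol printed per array spot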
Calls only; i = inactive; . = no result given; + = active, no number. Not all compounds are listed; the hit share may differ from the screen's.

SMILES | Myc binder | ID4 SMM | STAT3 binder | p53 mut binder
Cc1ccc(-c2csc3ncnc(SCc4csc(C)n4)c23)cc1 | i | i | i | i
C[C@H](CO)N1C[C@H](C)[C@@H](CN(C)C(=O)Nc2ccc3c(c2)OCO3)Oc2ccc(NS(=O)(=O)c3ccc(Cl)cc3)cc2C1=O | i | i | i | i
C[C@H](CO)N1C[C@H](C)[C@@H](CN(C)CC2CCCCC2)Oc2c(NC(=O)Nc3ccccc3)cccc2C1=O | i | . | i | i
COc1cc2c(cc1OC)-c1cc3nc4ccccc4nc3n1C(C)(C)C2 | i | . | i | i
O=C(Cn1cnc2ccccc2c1=O)Nc1ccccc1Br | i | i | i | i
COc1ccc(CN(C)C[C@@H]2Oc3ccc(NS(=O)(=O)c4ccc(OC)cc4)cc3C(=O)N([C@@H](C)CO)C[C@H]2C)cc1 | i | i | i | i
c1ccc(Cn2c(SCc3nc4ccccc4[nH]3)nc3ccccc32)cc1 | i | i | i | i
O=C(NC1CC1)C1=C[C@@H](C2CCCCC2)C[C@@H](OCc2ccc(CO)cc2)O1 | i | i | i | i
Cc1cc(-n2nc3ccccc3n2)c2oc(SCc3nnc(-c4ccccc4)o3)nc2c1 | i | i | i | i
COC(=O)c1cc(O)cc(OC)c1Oc1c(Cl)c(C)c(Cl)c(O)c1C(=O)O | i | i | i | i
CC(C)NC(=O)Nc1ccc2c(c1)C(=O)N([C@H](C)CO)C[C@@H](C)[C@H](CN(C)S(C)(=O)=O)O2 | i | . | i | i
Cc1noc(C)c1NC(=O)Nc1ccc2c(c1)C(=O)N([C@H](C)CO)C[C@H](C)[C@H](CN(C)C(=O)Nc1c(C)noc1C)O2 | i | i | i | i
CNC[C@H]1Oc2ccc(NC(=O)Nc3ccccc3)cc2CC(=O)N([C@@H](C)CO)C[C@@H]1C | i | i | i | i
Cc1cc(C)nc(SC2CCCCC2NS(=O)(=O)c2ccc(Cl)cc2)n1 (stereo unspecified) | i | i | i | i
Cc1ccc(Nc2nc(CSc3nnnn3-c3ccccc3)cc(=O)[nH]2)cc1 | i | i | i | i
COc1ccc(NC(=O)N(C)C[C@H]2OCCCC[C@H](C)Oc3ccc(NS(=O)(=O)c4ccccc4)cc3C(=O)N([C@@H](C)CO)C[C@@H]2C)cc1 | i | . | i | i
C[C@H](CO)N1C[C@H](C)[C@@H](CN(C)C)Oc2ccc(NC(=O)NC3CCCCC3)cc2CC1=O | i | i | i | i
Cc1noc(C)c1NC(=O)N(C)C[C@H]1OCCCC[C@H](C)Oc2ccc(NS(=O)(=O)c3cn(C)cn3)cc2C(=O)N([C@H](C)CO)C[C@@H]1C | i | i | i | i
Cc1cccc(C)c1OCC(=O)Nc1cccnc1 | i | i | i | i
COc1ccc(C#Cc2ccc3c(c2)[C@]2(C(=O)N3)[C@H](C(=O)N3CCN(c4ncccn4)CC3)[C@H]3C(=O)O[C@H](c4ccccc4)[C@H](c4ccccc4)N3[C@@H]2c2ccccc2OCCO)cc1 | i | . | i | i
C[C@@H]1CN([C@@H](C)CO)C(=O)CCCn2cc(nn2)CO[C@H]1CN(C)Cc1cccc(O)c1 | i | . | i | i
Cc1noc(C)c1S(=O)(=O)Nc1ccc2c(c1)C(=O)N([C@H](C)CO)C[C@@H](C)[C@H](CN(C)C(=O)Nc1ccc3c(c1)OCO3)O2 | i | i | i | i
Cc1cc(C)cc(N(CC(=O)O)S(C)(=O)=O)c1 | i | i | i | i
O=C(CCC1COc2ccccc2O1)NCc1ccco1 (stereo unspecified) | i | i | i | i
CC(=O)O[C@@H]1c2c(C)coc2C(=O)[C@@]23O[C@@H]2CC[C@H](C)[C@@]13C | i | . | i | i
C[C@@H]1CN([C@@H](C)CO)C(=O)c2cc(NC(=O)CCC(F)(F)F)ccc2O[C@@H](C)CCCCO[C@H]1CN(C)C | i | i | i | i
COc1ccc([Si](C)(C)[C@@H]2[C@@H](CCO)O[C@]3(C(=O)N(Cc4ccc(N5CCOC5=O)cc4)c4ccccc43)[C@H]2C)cc1 | i | . | i | i
O=C1O[C@H](c2ccccc2)[C@H](c2ccccc2)N2[C@H]1[C@@H](C(=O)N1CCCCCCC1)[C@]1(C(=O)Nc3ccc(C#CCCO)cc31)[C@H]2c1ccccc1OCCO | i | i | i | i
Cc1noc(C)c1S(=O)(=O)N(C)C[C@@H]1OCc2cnnn2CCCC(=O)N([C@@H](C)CO)C[C@H]1C | i | i | i | i
COc1ccc(-c2nnc(SCCCN3C(=O)c4cccc5cccc(c45)C3=O)n2C)cc1OC | i | i | i | i
C[C@@H]1CN([C@@H](C)CO)C(=O)c2cc(NC(=O)c3ccccc3)ccc2O[C@@H](C)CCCCO[C@@H]1CN(C)C(=O)Nc1ccccc1 | i | i | i | i
C[C@H](CO)N1C[C@H](C)[C@@H](CN(C)C(=O)Nc2ccc(F)cc2)Oc2ccc(NC(=O)NC3CCCCC3)cc2CC1=O | i | i | i | i
C[C@H]1CN([C@@H](C)CO)C(=O)c2cc(NS(C)(=O)=O)ccc2O[C@H]1CN(C)C(=O)NC1CCCCC1 | i | i | i | i
C[C@H]1CCCCO[C@@H](CN(C)C(=O)c2ccccc2)[C@@H](C)CN([C@@H](C)CO)C(=O)c2cc(NS(=O)(=O)c3ccccc3)ccc2O1 | i | i | i | i
Cc1noc(C)c1S(=O)(=O)N(C)C[C@H]1Oc2ccc(NS(=O)(=O)c3cccs3)cc2CC(=O)N([C@@H](C)CO)C[C@@H]1C | i | i | i | i
CCCCCCCC/C=C\CCCCCCCc1cccc(O)c1C(=O)O | i | . | i | i
COc1ccc(NC(=O)N(C)C[C@@H]2Oc3ncc(C#Cc4ccc(F)cc4)cc3C(=O)N([C@H](C)CO)C[C@@H]2C)cc1 | i | i | i | i
Cc1cc(C)c2nc(-c3cccnc3)cc(C(=O)Nc3sc(Cc4ccccc4)cc3C(N)=O)c2c1 | i | i | i | i
C[C@@H]1CN([C@H](C)CO)C(=O)c2cc(NC(=O)Nc3ccc(C(F)(F)F)cc3)ccc2O[C@H]1CN(C)C(=O)NC1CCCCC1 | i | i | i | i
C[C@@H]1CN([C@@H](C)CO)C(=O)c2cc(NS(C)(=O)=O)ccc2O[C@@H](C)CCCCO[C@@H]1CN(C)S(=O)(=O)c1cn(C)cn1 | i | i | i | i

Seven structures from above, sorted by heavy-atom count, smallest number first:
SMILES | Myc binder | ID4 SMM | STAT3 binder | p53 mut binder
CCCCCCCC/C=C\CCCCCCCc1cccc(O)c1C(=O)O | i | . | i | i
C[C@H]1CN([C@@H](C)CO)C(=O)c2cc(NS(C)(=O)=O)ccc2O[C@H]1CN(C)C(=O)NC1CCCCC1 | i | i | i | i
Cc1cc(C)c2nc(-c3cccnc3)cc(C(=O)Nc3sc(Cc4ccccc4)cc3C(N)=O)c2c1 | i | i | i | i
Cc1noc(C)c1S(=O)(=O)N(C)C[C@H]1Oc2ccc(NS(=O)(=O)c3cccs3)cc2CC(=O)N([C@@H](C)CO)C[C@@H]1C | i | i | i | i
C[C@@H]1CN([C@@H](C)CO)C(=O)c2cc(NS(C)(=O)=O)ccc2O[C@@H](C)CCCCO[C@@H]1CN(C)S(=O)(=O)c1cn(C)cn1 | i | i | i | i
C[C@@H]1CN([C@H](C)CO)C(=O)c2cc(NC(=O)Nc3ccc(C(F)(F)F)cc3)ccc2O[C@H]1CN(C)C(=O)NC1CCCCC1 | i | i | i | i
C[C@H]1CCCCO[C@@H](CN(C)C(=O)c2ccccc2)[C@@H](C)CN([C@@H](C)CO)C(=O)c2cc(NS(=O)(=O)c3ccccc3)ccc2O1 | i | i | i | i

The list goes on:
SMILES | Myc binder | ID4 SMM | STAT3 binder | p53 mut binder
O=C(O)CCCCCCC(=O)Nc1ccc(C2OC(CSCCO)CC(c3ccccc3)O2)cc1 (stereo unspecified) | i | + | i | i
Cc1noc(C)c1NC(=O)N(C)C[C@H]1OCCCC[C@H](C)Oc2ccc(NS(C)(=O)=O)cc2C(=O)N([C@H](C)CO)C[C@@H]1C | i | i | i | i
CNC[C@@H]1Oc2ccc(NC(=O)Nc3ccccc3)cc2CC(=O)N([C@H](C)CO)C[C@@H]1C | i | i | i | i
COc1ccc(CN(C)C[C@H]2Oc3ccc(NC(=O)c4ccncc4)cc3CC(=O)N([C@@H](C)CO)C[C@H]2C)cc1 | i | i | i | i
O=C1CSC(c2ccccc2)N1c1ccc(-c2ccccc2)cc1 (stereo unspecified) | i | i | i | i
C[C@H](CO)N1C[C@H](C)[C@@H](CN(C)C(=O)Nc2cccc(Oc3ccccn3)c2)OCc2cn(nn2)CCCC1=O | i | i | i | i
C[C@@H]1CCCCO[C@@H](CN(C)C)[C@H](C)CN([C@@H](C)CO)C(=O)c2cc(NS(=O)(=O)c3ccc(Cl)cc3)ccc2O1 | i | i | i | i
C[C@@H]1CN([C@@H](C)CO)C(=O)Cc2cc(NC(=O)Cc3ccccc3)ccc2O[C@@H]1CN(C)C(=O)Nc1ccc(F)cc1 | i | i | i | i
C=C[C@]1(C)C[C@H](O)[C@H]2C(=C)C(=O)O[C@@H]2[C@H]1C(=C)CO | i | i | i | i
C[C@@H]1CN([C@H](C)CO)C(=O)Cc2cc(NS(C)(=O)=O)ccc2O[C@H]1CN(C)C(=O)Nc1ccccc1 | i | i | i | i
C[C@H]1CN([C@@H](C)CO)C(=O)Cc2cc(NC(=O)NC3CCCCC3)ccc2O[C@H]1CN(C)C(=O)Nc1cccc2ccccc12 | i | i | i | i
CCOC(=O)O[C@]1(C(=O)COC(=O)CC)CC[C@H]2[C@@H]3CCC4=CC(=O)C=C[C@]4(C)[C@H]3[C@@H](O)C[C@@]21C | i | i | i | i
COC1=CC(=O)C[C@@H](C)[C@]12Oc1cc(OC)cc(OC)c1C2=O | i | . | i | i
COc1ccc(C(=O)Oc2ccc(C)c3c2C(=O)OC(C)C3)c2c1C(=O)OC(C)C2 (stereo unspecified) | i | i | i | i
COC(=O)CCCCCCC(=O)Nc1ccc(C=O)cc1 | i | i | i | i
CC(C)(C)c1ccc(OCC(=O)Nc2cccc(NC(=O)c3ccccc3)c2)cc1 | i | i | i | i
C[C@@H]1O[C@@H](O[C@@H]2[C@@H](O)[C@H](Oc3cc(O)c4c(c3)OC(c3ccc(O)cc3)CC4=O)O[C@H](COC3OCC(O)C(O)C3O)[C@H]2O)[C@H](O)[C@H](O)[C@H]1O (stereo partly specified) | i | i | i | i
C[C@@H]1CCCCO[C@H](CN(C)C(=O)c2ccncc2)[C@@H](C)CN([C@H](C)CO)C(=O)c2cc(NC(=O)CCCN(C)C)ccc2O1 | i | i | i | i
C[C@@H]1CN([C@@H](C)CO)C(=O)c2cc(NC(=O)CCC(F)(F)F)ccc2O[C@@H](C)CCCCO[C@@H]1CN(C)C(=O)Nc1ccccc1 | i | i | i | i
C[C@@H]1CN([C@H](C)CO)C(=O)c2cccc(NS(C)(=O)=O)c2O[C@@H]1CN(C)S(=O)(=O)c1cn(C)cn1 | i | i | i | i
CN(C)c1nc(N)nc(CSc2ccccn2)n1 | i | i | i | i
COc1cc2c(cc1OC)CN(C(=O)[C@H]1[C@@H]3C(=O)O[C@@H](c4ccccc4)[C@@H](c4ccccc4)N3[C@@H](c3ccccc3OCCO)[C@]13C(=O)Nc1ccc(C#CC4=CCCCC4)cc13)CC2 | i | i | i | i
COc1ccc(S(=O)(=O)Nc2ccc3c(c2)CC(=O)N([C@@H](C)CO)C[C@@H](C)[C@@H](CN(C)Cc2ccc(C(=O)O)cc2)O3)cc1 | i | i | i | i
COc1ccc(S(=O)(=O)Nc2ccc3c(c2)C(=O)N([C@H](C)CO)C[C@@H](C)[C@H](CN(C)C)O3)cc1 | i | i | i | i
CCOC(=O)c1c(NC(=O)CSc2nc(C)cc(C(F)(F)F)n2)sc(C)c1C | i | i | i | i
COc1ccc(S(=O)(=O)N(C)C[C@@H]2Oc3ncc(C#Cc4ccc(F)cc4)cc3C(=O)N([C@H](C)CO)C[C@@H]2C)cc1 | i | i | i | i
Cc1cc(C(=O)NCc2ccco2)c2cc(F)ccc2n1 | i | i | i | i
COc1ccc(S(=O)(=O)Nc2ccc3c(c2)C(=O)N([C@@H](C)CO)C[C@H](C)[C@@H](CN(C)Cc2ccncc2)O3)cc1 | i | i | i | i
O=C1NCC(=O)N2[C@@H]1C[C@@H](C(=O)NCc1ccc(F)cc1)[C@H]2c1cccc(OCCO)c1 | i | + | i | i
C[C@@H]1CN([C@@H](C)CO)C(=O)c2cccc(NS(C)(=O)=O)c2O[C@@H]1CN(C)C(=O)Nc1ccc(F)cc1 | i | . | i | i
CC(C)NC(=O)N(C)C[C@@H]1Oc2ccc(N(C)C)cc2CC(=O)N([C@H](C)CO)C[C@H]1C | i | i | i | i
Cc1noc(C)c1S(=O)(=O)Nc1cccc2c1O[C@H](CN(C)Cc1ccc(Cl)c(Cl)c1)[C@H](C)CN([C@H](C)CO)C2=O | i | i | i | i
C[C@@H]1CN([C@@H](C)CO)C(=O)c2cc(N(C)C)ccc2O[C@@H]1CN(C)C | i | i | i | i
O=C(C1=C[C@@H](C2CCCCC2)C[C@@H](OCc2ccc(CO)cc2)O1)N1CCOCC1 | i | . | i | i
COc1ccc(N(CC(=O)Nc2cccc(Cl)c2Cl)S(C)(=O)=O)cc1OC | i | i | i | i
C[C@H](CO)N1C[C@H](C)[C@@H](CN(C)Cc2ccc(Oc3ccccc3)cc2)Oc2c(NS(=O)(=O)c3cn(C)cn3)cccc2C1=O | i | i | i | i
Nc1ncnc(NCC2CCCO2)c1[N+](=O)[O-] (stereo unspecified) | i | i | i | i
